D2 PAM = human D2 receptor positive allosteric modulation. 0.23% of 360,000 active. potentiation, % (concentration not given with the values). P14416. AID 624464. DiscoveRx D2 beta-arrestin cells, luminescence, 90 min; 100% = 57 uM dopamine signal; active = potentiation of 50% or more; inconclusive = 30% to 50%; inactive = 30% or less;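 also: compound concentration not given in the record; tested on top of an EC20 dose of dopamine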
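D2 cells co-treated with compound plus 50 nM dopamine (EC20) for 90 min at 37 deg C to detect potentiation. Beta-arrestin recruitment was read as enzyme-fragment luminescence after 1 h at ambient temperature. Full response was set by 57 uM dopamine.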
PINK1 expr mod = PINK1 expression modulation; Potency, µM (series often up to 76.6 µM), without a hit: at the highest dose activation (PINK1 increase), hits mostly activators; 0.2% of 410,000 active; PINK1 immunofluorescence, high-content cytometry, 24 h; active = well fitted activation curve with a large enough effect; inconclusive = small, poorly fitted or top-dose-only effect; inactive = flat fitted curve, though single readings scatter; cell line not stated here;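 also: potency is read from the fitted curve at half-maximal effect; % of control where 0% means no effect; nearly all actives have a fitted effect of over 65% in size; a mitochondrial uncoupler was the plate control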
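Stable cell line treated 24 h with compounds at 5 concentrations (CCCP controls), then fixed and immunostained for PINK1 plus nuclear and cell stains; PINK1 immunofluorescence quantified by laser-scanning microplate cytometry.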
D2 ag = agonists of human D2 dopamine receptor (beta-arrestin) | activation, % (concentration not given with the values) | DiscoveRx PathHunter D2 beta-arrestin, luminescence, 90 min; 100% = 57 uM dopamine signal | P14416 | AID 624465 | 0.084% of 360,000 active; in the data active = activation above about 40%; inconclusive = about 15% to 40%; inactive = below about 15%; also: compound concentration not given in the record; the text of the record calls up to 30% inactive
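Agonist mode: compounds alone added to overnight-plated D2 PathHunter cells for 90 min at 37 C, with 57 uM final dopamine (EC100) defining full response. Beta-arrestin recruitment detected by chemiluminescent reagent, read after 1 h at ambient temperature.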
Six1-Eya2 blk = Six1/Eya2 interaction inhibition; activity change, % (no concentration beside the values); 0.56% of 360,000 active; AlphaScreen GST-Six1/His-Eya2 binding, biochemical; hits give low values; control for the full effect not named in the record; Q15475+O00167; AID 651725; in the data active = activity change below about -65%; inconclusive = about -30% to -65%; inactive = above about -30%; also: % is scaled to controls: 0 for no effect and ±100 for the full control effect; compound concentration not given in the record
Target sequence (O00167 whole entry, looked up): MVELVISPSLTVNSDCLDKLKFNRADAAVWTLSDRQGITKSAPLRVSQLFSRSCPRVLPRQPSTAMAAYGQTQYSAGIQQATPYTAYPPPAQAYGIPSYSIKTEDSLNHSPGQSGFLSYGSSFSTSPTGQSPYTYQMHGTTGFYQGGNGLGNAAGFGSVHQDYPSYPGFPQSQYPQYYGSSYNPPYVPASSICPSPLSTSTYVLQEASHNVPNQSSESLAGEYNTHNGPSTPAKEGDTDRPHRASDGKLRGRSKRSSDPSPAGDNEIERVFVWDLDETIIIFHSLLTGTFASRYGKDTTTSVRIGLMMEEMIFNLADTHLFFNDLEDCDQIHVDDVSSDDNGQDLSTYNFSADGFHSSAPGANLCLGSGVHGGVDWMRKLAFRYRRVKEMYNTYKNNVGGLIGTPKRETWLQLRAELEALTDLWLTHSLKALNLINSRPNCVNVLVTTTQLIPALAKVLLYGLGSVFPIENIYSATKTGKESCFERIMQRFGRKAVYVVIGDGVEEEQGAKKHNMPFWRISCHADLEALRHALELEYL
Target sequence (Q15475 whole entry, looked up): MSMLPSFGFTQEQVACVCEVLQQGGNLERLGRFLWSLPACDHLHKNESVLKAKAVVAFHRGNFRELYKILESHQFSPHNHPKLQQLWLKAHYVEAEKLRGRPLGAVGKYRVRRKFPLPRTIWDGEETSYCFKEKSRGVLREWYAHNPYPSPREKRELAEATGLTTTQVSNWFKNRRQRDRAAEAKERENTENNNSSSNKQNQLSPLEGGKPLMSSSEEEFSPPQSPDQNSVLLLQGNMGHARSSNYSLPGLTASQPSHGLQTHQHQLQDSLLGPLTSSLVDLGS
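Homogeneous AlphaScreen proximity assay pairing GST-Six1 with His-tagged Eya2 (added as 5X mix: 250 nM and 500 nM) in 50 mM Tris pH 8.0, 300 mM NaCl, 1 mM TCEP. Glutathione donor and nickel acceptor beads; 1 h, 37 °C, dark.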
CtBP-E1A inh = blocks the CtBP interaction with E1A; AlphaScreen GST-E1A/His-CtBP binding, 1536-well; hits give low values; control for the full effect not named in the record; activity change, % (no concentration beside the values); 0.49% of 340,000 active; AID 651724; in the data active means activity change below about -65%; inconclusive means about -30% to -65%; inactive means above about -30%; also: % is scaled to controls: 0 for no effect and ±100 for the full control effect; compound concentration not given in the record
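In 5 uL wells, 23 nL compound meets equimolar GST-E1A and His-CtBP (5X stock 125 nM each) for 2 h, 37 °C. Beads (5X, 50 ug/mL) then 1 h, 37 °C, dark.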
TRPV1 potentiator = human TRPV1 potentiation. TRPV1-expressing cells, Fluo-8 calcium influx, capsaicin EC20 potentiation; host cell line not named in the record; control for the full effect not named in the record. 0.02% of 320,000 active. potentiation, % at 8.33 µM. AID 540277. Q8NER1; active means potentiation above 80%; inconclusive means 30% to 80%; inactive means below 30%; also: 0% is about no effect
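TRPV1-expressing cells were cultured overnight at 35.5C and loaded with Fluo-8 calcium dye for 40 to 90 min at room temperature. After a 10 s baseline, compound was added and calcium influx was read kinetically for 3 min (ex 480/em 520 nm).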
Sfp inh = blocks B. subtilis Sfp PPTase activity | Q9F4F7 | Biochemical Sfp PPTase activity, qHTS | Potency, µM, for inactives: max response, negative = inhibition, hits mostly inhibitors | 3.5% of 310,000 active; active = well fitted inhibition curve with a large enough effect; inconclusive = small, poorly fitted or top-dose-only effect, or another doubt; inactive = no such curve, though single readings can be large or run the other way;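 also: the enzyme is Sfp with the accession as filed and its product quenches rhodamine fluorescence; potency is read from the fitted curve at half-maximal effect; 0% = enzyme reaction without inhibitor and -100% = no enzyme wells; top concentration of the series not given in the record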
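Fluorescence-quenching assay: 15 nM Sfp-PPTase preincubated 15 min at room temperature with compound, then 5 uM rhodamine-CoA and 12.5 uM BHQ-2-labelled YbbR peptide added. Fluorescence (ex 525/em 598 nm) read at start and after 30 min; difference gives rate.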
Starred values were filed as active, the others as inactive; ? = inconclusive; . = not tested or not shown; [ ] = remark or other dose.

SMILES	D2 PAM	PINK1 expr mod	D2 ag	Six1-Eya2 blk	CtBP-E1A inh	TRPV1 potentiator	Sfp inh
COc1ccc(/C=N/NC(=O)CCc2ccccc2)cc1O	-10	6.3%	-2.4	-11	-7	-19	19%
O=C(COC(=O)COc1ccc(Cl)cc1Br)NC1CCCCCC1	-2	-1.6%	-1.6	10	-1	-12	.
CC(=O)c1ccc(NC(=S)N2CCN(c3ccccn3)CC2)cc1	2	-0.6%	4.6	0	7	12	11%
Cc1cccc(C)c1OCC(O)CN1CCN(C(=O)c2ccccc2)CC1 (stereo not drawn)	-15	-0.6%	-0.6	1	-2	.	.
O=C(COC(=O)CC1CC2CCC1C2)Nc1c(F)cccc1F (stereo not drawn)	-9	2.2%	-4.7	-6	3	-21	16%
CC(=O)Nc1ccc(S(=O)(=O)N(C)CC(=O)Nc2ccccc2N2CCCC2)cc1	-12	-0.1%	0.6	-3	2	-16	.
COCCNC(=O)C1CCCN(Cc2ccccc2Cl)CC1 (stereo not drawn)	1	-0.5%	1.2	1	3	.	.
O=S(=O)(Cc1ccc(Cl)cc1)C1CCCCC1O (stereo not drawn)	-7	0.6%	-2.9	4	-2	-20	6%
COc1ccc(-c2nnc(COc3ccc(Br)cc3C)o2)cc1	6	0.6%	2.6	-1	.	.	.
O=C1NC(=S)S/C1=C\c1coc2ccc(O)cc2c1=O	-7	2.5%	-3.6	-22	-16	18	2%
O=C(CN1c2cccc3cccc(c23)S1(=O)=O)NCc1ccc2c(c1)OCO2	1	9.5%[38.3 µM]	-2.4	4	-2	-4	13%
O=C1CC(N2CCN(c3ccccc3)CC2)C(=O)N1c1ccc2c(c1)OCCO2 (stereo not drawn)	-16	-1.1%	-2.9	-1	0	-10	8%
O=C(Nc1ccc(Cl)cn1)c1ccc2ccccc2n1	11	5.1%	0.4	20	-7	-3	11%
COc1cc(/C=C/C(=O)OCC(=O)N2CCCc3ccccc32)ccc1O	-19	0.1%	1.0	-7	-3	.	.
Cc1ccc(C(=O)NCC(=O)NCCCc2ccccc2)cc1	-7	2.8%	-2.2	9	11	25	4%
CSCC[C@H](NC(=O)[C@@H]1Cc2ccccc2CN1)C(=O)Nc1ccc2c(c1)OCO2	-27	0.0%	1.1	-9	-10	-10	6%
CCc1cc(=O)oc2cc(OC(C)=O)cc(OC(C)=O)c12	-26	2.4%	-1.2	-16	-11	-10	11%
Cc1cc(C)nc(N2CCCC(C(=O)NCc3cccs3)C2)n1 (stereo not drawn)	-12	5.4%[38.3 µM]	-2.2	5	13	3	-1%
Cc1ccc2c(c1)N(C(C)C(=O)NCCc1ccccc1)C(=O)CO2 (stereo not drawn)	3	1.3%	-0.1	2	2	-10	12%
O=C(c1cccc(C(F)(F)F)c1)N1CCc2c([nH]c3ccccc23)C1C(F)(F)F (stereo not drawn)	17	29%	4.3	8	1	4	21%
CCN(CC(=O)Nc1ccccc1OC)C(=O)c1ccc2[nH]c3c(c2c1)CC(C)CC3 (stereo not drawn)	0	1.9%	-5.3	-23	-28	12	.
CCOC(=O)c1c(S(=O)(=O)NCC(=O)Nc2ccccc2F)c(C)n(C)c1C	-3	-0.7%	0.3	-1	-8	1	7%
CCN(CC)c1ccc(/C=N/NC(=O)c2ccoc2C)c(O)c1	-16	4.2%	-2.8	-28	-18	-10	14%
Cc1ccc(S(=O)(=O)Nc2n[nH]nc2C(=O)NC2CCCCC2)cc1	-1	4.4%	-2.7	9	6	-4	26%
O=c1c2ccccc2oc2ccc(NCCCn3ccnc3)cc12	-8	1.7%	-0.4	-18	-22	-4	10%
O=C(CSc1nc(-c2ccccc2)cc(=O)[nH]1)Nc1ccccc1	-9	2.0%	-1.0	0	2	28	-3%
CC1(C)CC(=O)C(C=NCC(N)=O)=C(O)C1	-5	?	-1.1	-12	-14	14	1%
COc1ccc(/C(N)=N/OC(=O)CCc2ccccc2)cc1	-8	0.0%	-2.0	5	0	-47	-16%
Cc1ccc(S(=O)(=O)N2CCC(C(=O)Nc3ccc(C(C)C)cc3)CC2)cc1	-2	-0.2%	-6.9	-2	3	-14	.
Cc1ccc(-c2ccc(=O)[nH]n2)cc1	-1	-3.7%	1.6	7	-10	-26	-6%
Nc1ccc(O)c2c1C(=O)c1ccccc1C2=O	-10	-0.7%	3.4	-85*	-86*	2	?
C/C(=N/OC(=O)c1ccc(Br)cc1)c1ccc(C)cc1	-4	2.5%	9.4	5	6	-4	10%
CC(C)C(=O)Nc1ccc(O)c(-c2csc(N)n2)c1	-2	0.2%	-4.9	-12	-4	-17	7%
COc1ccc(NC(=O)c2noc3c2CCC3)cc1	28	-1.1%	-0.7	-10	5	-24	8%
Cc1cc(C(=O)COc2ncnc3sccc23)c(C)n1C1CC1	-5	-0.1%[38.3 µM]	-0.5	-6	11	0	-8%
O=C(Cn1cnc2c(nnn2Cc2ccc(Cl)cc2)c1=O)NCc1ccco1	-1	6.4%[38.3 µM]	-1.1	-6	-25	9	3%
CC(=O)Nc1nn(C)c2nc(C)cc(C)c12	12	0.3%	3.8	2	-3	?	7%
CN1CCC(OC(=O)c2cc3cc(Br)ccc3oc2=O)CC1	-4	1.6%	1.1	6	0	12	16%
CC1Oc2ccccc2N(CC(=O)NCCc2ccccc2)C1=O (stereo not drawn)	-12	1.4%	-2.8	9	4	2	7%
CC(=O)Nc1ccc(NC(=O)Nc2cccc(Cl)c2)cc1	-25	-0.1%	-4.7	3	-2	-15	9%
Nc1c(C(=O)NCCN2CCOCC2)c2nc3ccccc3nc2n1-c1ccc2c(c1)OCO2	-19	-0.6%[38.3 µM]	-1.0	8	12	-31	-24%
CC(=O)CC(=O)Nc1ccc2ccccc2c1	2	0.5%	-5.2	0	.	8	10%
CC(C)(C)NC(=O)COC(=O)c1cc(Cl)ccc1[N+](=O)[O-]	8	0.1%	2.7	2	4	16	10%
COC(=O)c1cc(S(=O)(=O)N2CCOCC2)c(N2CCOCC2)cc1N1CCOCC1	-2	-0.6%	-0.8	-3	-9	-16	17%
CCCCNC(=O)CCCCC(=O)N/N=C/c1cccc(Cl)c1	-27	1.9%	-2.8	0	-1	8	11%
Cc1ccc(NC(=O)c2c([N+](=O)[O-])c(C(C)(C)C)nn2C)cc1	-4	4.6%	-2.7	-2	-6	-7	19%
CN(C)c1nc(-c2ccc([N+](=O)[O-])cc2)cs1	-16	0.5%	-0.7	-20	-15	-18	3%
Clc1ccc(-c2ncc3ccccn23)c(Cl)c1	-2	2.4%	1.3	-5	0	-4	10%
Cc1ccc(C(=O)NCC(=O)Nc2ncccc2C)s1	3	2.1%	1.9	-1	-15	10	.
COc1ccc(NC(=S)N2CCc3ccccc3C2)cc1OC	-5	3.4%	-0.8	1	.	4	11%
CC(C)C(c1nnnn1Cc1ccccc1)N(Cc1ccco1)Cc1cccs1 (stereo not drawn)	-3	0.8%	-3.6	-2	7	1	2%
Cc1nc2c(sc3nc(N4CCOCC4)c4c(c32)CC(C)(C)OC4)c(-c2ccc(Cl)cc2)c1C(=O)O	-7	21%	1.3	-4	5	-4	-9%
CCc1nc2c(OCC=C(C)C)cccn2c1N(C)C(=O)c1ccccc1F	-18	13%	-5.4	-1	-6	.	.
CCOC(=O)CC(NC(=O)c1ccco1)c1ccc(C)cc1 (stereo not drawn)	-3	0.0%	-0.1	1	4	-8	7%
CCc1cc(CNC(=O)c2ccc(OC3CCN(CCc4ccccc4)CC3)cc2)on1	-30	0.2%	-2.3	-11	1	3	9%
COc1ccc(C2OC(=O)CC2C(=O)NCc2ccc(Cl)cc2)cc1OC (stereo not drawn)	-5	2.8%	1.9	1	3	-3	5%
COc1cccc(/C=c2\sc3nc(-c4cccs4)nn3c2=O)c1OC	-8	4.8%	-0.6	3	10	20	1%
CCCn1c2ccccc2c2cnn(CC(=O)NC3CCCCC3)c(=O)c21	-9	2.5%	-0.8	2	.	-13	-7%
CCOC(=O)c1ccccc1NC(=O)COC(=O)c1ccccc1C(=O)N(C)c1ccccc1	13	-3.9%	2.2	3	10	5	.
CCOCCOC(=O)c1[nH]c2c(c1C)C(=O)CC(c1ccc(OC)c(OC)c1)C2 (stereo not drawn)	10	10%	6.9	-6	-2	-26	3%
Continuation:
SMILES	D2 PAM	PINK1 expr mod	D2 ag	Six1-Eya2 blk	CtBP-E1A inh	TRPV1 potentiator	Sfp inh
COc1ccc(C2CCCN2C(=O)Nc2ccc(C)c(C)c2)cc1OC (stereo not drawn)	-7	0.0%	-2.7	-3	0	-7	1%
COc1ccc(C)cc1NS(=O)(=O)c1cc(C)ccc1C	-8	5.6%[38.3 µM]	-2.7	3	14	-2	14%
N/C(=N\N=C\c1ccco1)SC1CC(=O)N(c2ccc(C(=O)O)cc2)C1=O (stereo not drawn)	9	1.6%	-1.6	1	-2	1	18%
Cc1noc(C)c1C(=O)OCC(=O)Nc1ccccc1Oc1ccccc1	-12	-0.7%	-3.0	-1	8	-21	8%
CC(C)CN(CC(C)C)S(=O)(=O)N1CCC(C(=O)NCc2ccco2)CC1	-4	1.1%	2.7	-2	.	-17	8%
Cc1cccnc1NC(=S)NC(=O)c1cccs1	-14	-2.8%[38.3 µM]	-2.5	-1	-3	-10	79µM*
Cc1csc(C(C)NC(=O)c2ccc(OC3CCN(CCc4ccccc4)CC3)cc2)n1 (stereo not drawn)	-33	-0.7%	-2.7	-6	-19	3	0%
CC(C)N1CCN(C(=O)c2ccc(NC(=O)c3ccc(Br)o3)cc2)CC1	-13	-0.4%	-1.6	-3	-1	2	.

Limited to D2 PAM, for 5 of the compounds above:
mol	D2 PAM
COc1ccc(C2CCCN2C(=O)Nc2ccc(C)c(C)c2)cc1OC (stereo not drawn)	-7
COc1ccc(C)cc1NS(=O)(=O)c1cc(C)ccc1C	-8
N/C(=N\N=C\c1ccco1)SC1CC(=O)N(c2ccc(C(=O)O)cc2)C1=O (stereo not drawn)	9
Cc1noc(C)c1C(=O)OCC(=O)Nc1ccccc1Oc1ccccc1	-12
CC(C)CN(CC(C)C)S(=O)(=O)N1CCC(C(=O)NCc2ccco2)CC1	-4

Looked up above.
For D2 PAM, Cc1csc(C(C)NC(=O)c2ccc(OC3CCN(CCc4ccccc4)CC3)cc2)n1 (stereo not drawn) shows -33
For D2 ag, CSCC[C@H](NC(=O)[C@@H]1Cc2ccccc2CN1)C(=O)Nc1ccc2c(c1)OCO2 shows 1.1

Compound activity as filed in PubChem BioAssay.
